Screens: PubChem, several laboratories
HIV Env fusion – inhibitors of HIV-1 Env-driven cell-cell fusion, primary screen, HeLa-JRFL effector, CEM21 target cells, luciferase | AID 651610, 2012 | inhibition, % at 12.3 µM | 360,000 tested, 1.1% active;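 active means mean replicate inhibition score of at least 50 and every replicate individually at or above 50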;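 further: 0% = plate neutral controls and 100% = maraviroc near 300 nM; one replicate is shown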
eIF4H FP inh – human eIF4H binding inhibitors, primary screen, translation initiation inhibitor project, biochemical, uHTS, fluorescence polarization | 290,000 tested, 0.94% active | inhibition, % at 35 µM | eIF4H fluorescence polarization binding assay | Eukaryotic translation initiation factor 4H (Homo sapiens), Q15056;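 active means 50% or more with normal probe brightness, or confirmed in later tests; about a fifth of its hits are not listed in these tables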;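 further: calls also rest on retests at 20 µM and on dose response follow-up; 0% = protein and probe with vehicle and 100% = probe without protein; strong numbers were not always called active; many hits fall short of the cut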
CSC inhib – cancer stem cell viability inhibitors, primary screen, luminescence; 300,000 tested, 1.1% active; inhibition, % at 7.5 µM; AID 2717, 2010; cancer stem cell-like cells viability;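 active means mean at 75% or more and at least half the replicates too; tested in HMLE shEcad cells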;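 further: 0% = median of negative and 100% = median of positive control wells; the first replicate is given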
Rce1 inh – yeast Rce1p protease inhibitors, primary screen, biochemical, fluorescence, cell-free homogeneous; 290,000 tested, 0.27% active; AID 2563, 2010; yeast membranes, quenched prenylated peptide cleavage fluorescence; CAAX prenyl protease 2 (Saccharomyces cerevisiae (strain ATCC 204508 / S288c)), Q03530; calls only;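 active means fall in fluorescence gain of 50% or more versus controls, with final raw signal at or below 3038400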;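 further: plate controls were neutral control wells for no effect and wells lacking membranes for full effect; tested at 10 µM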
Target sequence (Q03530 whole entry, looked up): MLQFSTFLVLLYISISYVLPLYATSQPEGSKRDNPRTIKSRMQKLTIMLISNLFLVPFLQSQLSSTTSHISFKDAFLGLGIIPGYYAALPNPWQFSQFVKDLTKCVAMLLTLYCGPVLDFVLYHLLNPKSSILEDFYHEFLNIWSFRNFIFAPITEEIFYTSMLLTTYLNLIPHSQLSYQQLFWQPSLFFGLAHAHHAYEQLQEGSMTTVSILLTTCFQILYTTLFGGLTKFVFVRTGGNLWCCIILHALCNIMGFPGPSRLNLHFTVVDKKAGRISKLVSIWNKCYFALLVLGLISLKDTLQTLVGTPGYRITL
MT1-MMP act inh – blockers of MT1-MMP proenzyme processing, primary screen, HT1080 RFP-PRO-GFP cells, GFP/RFP fluorescence | GFP/RFP ratio change, % at 20 µM | 360,000 tested, 0.061% active | AID 651647, 2012 | GFP/RFP ratio fluorescence, overnight; percent of plate control window, DMSO zero;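 active means GFP/RFP ratio change of at least 30% with cell ATP level not reduced by more than half and red fluorescence within 50% of control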; further: strong numbers were not always called active
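system = RFP-PRO-GFP reporter HT1080 cells | dosing = 20 µM single dose, 1% DMSO | timing = overnight cell settling, then overnight compound exposure, 37 °C, 5% CO2 | read-out basis = GFP/RFP fluorescence ratio | controls = DMSO and RFP-L50D-GFP cell wells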
UUG fidelity – modulators of yeast start codon fidelity, primary screen, whole organism, S. cerevisiae, single point, plate reader | S. cerevisiae UUG-firefly luciferase reporter, luminescence/redox ratio | activity score, % at 18.7 µM | 350,000 tested, 0.13% active | AID 602363, 2012;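 active means replicate mean at a twofold rise or more, about +100% in these data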;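 further: firefly luciferase made from a UUG start codon reports start codon fidelity; reporter light over untreated wells divided by growth signal over untreated wells; some hits fall short of that in this replicate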
PABP polyA inh – PABP poly(A) RNA binding inhibitors, primary screen, biochemical, fluorescence polarization, uHTS; inhibition, % at 35 µM; Polyadenylate-binding protein 1 (Homo sapiens), P11940; 290,000 tested, 1% active;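 active means 50% or more with normal probe brightness, or confirmed in later tests; about a fifth of its hits are not listed in these tables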;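 further: calls also rest on retests at 20 µM and on dose response follow-up; controls were probe without protein and protein plus probe with vehicle; some compounds called inactive have numbers as strong as hits; many hits fall short of the cut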
MT1-MMP act inh RFP – second read-out of MT1-MMP act inh, no call of its own (marks repeat the call); RFP signal change, %; measured here: RFP expression control read;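 0 = vehicle wells; hits needed this value within 50% of zero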
* marks the source's active call; other numbers are inactive results; i = inactive; · = no result given; & = joins results of further samples. The order is random; any-hit rate near 2.9%.

SMILES	HIV Env fusion	eIF4H FP inh	CSC inhib	Rce1 inh	MT1-MMP act inh	MT1-MMP act inh RFP	UUG fidelity	PABP polyA inh
Cc1cc(S(=O)(=O)NCC(=O)O)ccc1F	15.9	-4.1	-7.8	i	-2.1	1.8	-4.8	0.9
COc1ccc(S(=O)(=O)N2CCC(C(=O)N3CCc4ccccc4C3)CC2)cc1	·	-3.8	-24.7	i	3.1	3.8	·	-4.6
O=C(C1CCN(C2CCN(Cc3ccsc3)CC2)CC1)N1CCOCC1	10.8	-0.5	3.2	i	1.9	7.3	-13.8	-11.1
Cc1ccc(C2CC(c3ccccc3)=NN2C(=O)CSc2nnc(-c3ccncc3)n2C)o1 (stereo unspecified)	·	-11.5	37.4	i	-0.3	1.5	-1.7	3.4
CCCCOc1ccc(OC(=O)Nc2cc(Cl)ccc2OC)cc1	36.7	-1.1	29.6	i	0.2	2.8	-3.7	7.1
COc1cc([N+](=O)[O-])ccc1NC(=O)NNC(=O)CCc1ccccc1	16.7	-7.7	-9.0	i	2.2	-2.1	-4.3	-1.1
CCCCN(C(=S)NC(=O)c1cc(OC)c(OC)c(OC)c1)c1c(N)n(Cc2ccccc2)c(=O)[nH]c1=O	-15.0	-2.0	-27.3	i	-0.1	1.6	-6.8	4.8
O=C(c1cccc(Cl)c1)N1CCCC(C(=O)N2CCCCCC2)C1 (stereo unspecified)	-11.7	6.4	-10.1	i	-2.6	-4.5	-12.1	-2.1
COc1ccccc1NS(=O)(=O)c1ccc(N/N=C(\C)C(C)C)c([N+](=O)[O-])c1	·	3.9	17.9	i	2.2	-19.6	·	2.3
Cc1ccc(N2CCN(C(=O)N3CCOCC3)CC2)c(C)c1	-5.9	-0.2	-3.8	i	-3.6	-0.4	·	-5.7
Cn1c(COc2ccccc2)nnc1SCC(=O)Nc1ccc(S(N)(=O)=O)cc1	8.0	-1.7	-10.8	i	0.4	-0.3	-26.5	-0.9
O=C1C2ON(c3ccc(Br)cc3)C(c3cccnc3)C2C(=O)N1C1CCCCC1 (stereo unspecified)	·	-5.9	-3.8	i	3.2	1.3	3.9	5.6
NC(=O)c1ccsc1NC(=O)COC(=O)CNC(=O)c1ccc(F)cc1	4.9	·	-5.0	·	1.2	3.1	-3.2	·
CN1CC(=O)N(CC(=O)N2N=C(c3ccc(Cl)cc3)CC2c2ccco2)C1=O (stereo unspecified)	6.2	-1.2	-6.3	i	-7.0	-1.7	12.5	-4.4
C=CCn1c(SCC(=O)Nc2ccc(NC(C)=O)cc2)nc2sc(C)c(C)c2c1=O	13.2	·	·	·	5.9	-1.1	-18.4	·
C[C@@H]1CCCCO[C@H](CN(C)C(=O)c2ccccc2)[C@@H](C)CN([C@H](C)CO)C(=O)c2cc(NC(=O)NC3CCCCC3)ccc2O1	-12.1	·	·	·	5.4	-1.7	4.7	·
Cc1ccc(CNC(=O)CCS(=O)(=O)c2ccc3c(c2)CC(C)N3C(=O)C2CC2)cc1 (stereo unspecified)	18.5	3.8	-7.3	i	-1.2	1.1	-3.1	-1.3
CC12CCC(=O)C=C1C(F)CC1C2C(O)CC2(C)C1CCC2(O)C(=O)CO (stereo unspecified)	-74.0	·	·	·	1.2	-2.4	-8.2	·
N/C(=N\OC(=O)COc1ccc(Cl)cc1Cl)c1cccnc1	·	-1.2	1.0	i	3.6	-4.2	3.4	-1.1
O=C(c1ccc(Cl)cc1)c1ccc(OCC(O)CN2CCCCC2)cc1 (stereo unspecified)	47.7	9.7	-3.7	i	2.9	-4.0	-17.7	8.6
CCn1c(CNC(=O)c2cc(OC)c(OC)c(OC)c2)cc2cc(C)ccc21	38.8	-2.2	0.6	i	-3.9	-16.3	-6.3	-0.9
COc1ccccc1CN(C)C(=O)c1cc(S(=O)(=O)N2CCCCCC2)ccc1OC	0.4	·	·	·	-1.3	-4.8	14.2	·
CCc1cccc(C)c1NC(=S)N(Cc1cccnc1)Cc1ccco1	·	5.2	2.0	i	2.2	1.9	·	-4.4
C[C@H](CO)N1C[C@H](C)[C@@H](CN(C)C(=O)c2ccccc2)Oc2cc(C#C[C@@H](C)O)ccc2S1(=O)=O	-55.3	·	·	·	-4.3	-7.9	22.5&0.8&0.1	·
CCOc1ccc(-c2cc(C(=O)NCCCn3ccnc3)c3ccccc3n2)cc1	1.5	-0.7	-0.4	i	-0.9	-1.9	·	16.1
O=C(C1CCN(S(=O)(=O)c2cnc[nH]2)CC1)N1CCN(c2ccc([N+](=O)[O-])cc2)CC1	-2.5	-0.2	-35.3	i	1.4	4.0	-10.3	-15.1
O=Cc1c(Cl)[nH]c(=O)n1-c1ccccc1	-4.9	4.0	·	·	3.0	5.3	-10.1	53.2*
O=C(NCCCN1CCOCC1)C(=O)NCc1ccc(Cl)cc1	-12.1	-7.5	-17.1	i	-2.0	0.8	·	-7.5
Cc1ccc(C2CC(=O)C=C(O)C2)cc1 (stereo unspecified)	·	-6.7	-8.3	i	-0.8	-0.2	-37.8	-4.3
CC(=O)c1cccc(-c2ccnc3c2CC(C(=O)NCc2ccco2)O3)c1 (stereo unspecified)	-5.9	·	·	·	17.9	2.9	-8.6	·

An excerpt of these results, as a markdown table.
| SMILES | HIV Env fusion | eIF4H FP inh | CSC inhib | Rce1 inh | MT1-MMP act inh | MT1-MMP act inh RFP | UUG fidelity | PABP polyA inh |
| --- | --- | --- | --- | --- | --- | --- | --- | --- |
| CCn1c(CNC(=O)c2cc(OC)c(OC)c(OC)c2)cc2cc(C)ccc21 | 38.8 | -2.2 | 0.6 | i | -3.9 | -16.3 | -6.3 | -0.9 |
| COc1ccccc1CN(C)C(=O)c1cc(S(=O)(=O)N2CCCCCC2)ccc1OC | 0.4 | · | · | · | -1.3 | -4.8 | 14.2 | · |

The list goes on:
SMILES	HIV Env fusion	eIF4H FP inh	CSC inhib	Rce1 inh	MT1-MMP act inh	MT1-MMP act inh RFP	UUG fidelity	PABP polyA inh
O=C(CCCn1cncn1)N1CCCC(N2CCN(c3ccccc3F)CC2)C1 (stereo unspecified)	-5.0	-13.2	-3.0	i	-4.2	2.9	-0.1	3.3
COC(=O)C1=C(O)CSC1=Nc1cccc(C(F)(F)F)c1	-10.1	-2.3	-4.4	i	6.8	-3.3	-7.2	-1.7
CC1(O)C(=O)c2ccccc2N(c2ccccc2)C1=O (stereo unspecified)	·	-3.3	5.3	i	2.5	3.8	-23.4	-5.8
Cc1sc2ncnc(N3CCC(C(=O)Nc4nc5ccc(Cl)cc5s4)CC3)c2c1C	-76.5	·	11.4	i	1.1	-3.3	-7.6	·
COc1ccc(Oc2cc(C(F)(F)F)cnc2C(N)=O)cc1	·	-3.1	-0.1	i	1.3	1.6	-11.5	-2.5

3 successive records from above:
SMILES	HIV Env fusion	eIF4H FP inh	CSC inhib	Rce1 inh	MT1-MMP act inh	MT1-MMP act inh RFP	UUG fidelity	PABP polyA inh
CC(=O)c1cccc(-c2ccnc3c2CC(C(=O)NCc2ccco2)O3)c1 (stereo unspecified)	-5.9	·	·	·	17.9	2.9	-8.6	·
O=C(CCCn1cncn1)N1CCCC(N2CCN(c3ccccc3F)CC2)C1 (stereo unspecified)	-5.0	-13.2	-3.0	i	-4.2	2.9	-0.1	3.3
COC(=O)C1=C(O)CSC1=Nc1cccc(C(F)(F)F)c1	-10.1	-2.3	-4.4	i	6.8	-3.3	-7.2	-1.7
